Compound activity deposited in PubChem BioAssay by several laboratories.
rRNA inh HTS = inhibits bacterial ribosomal RNA function over humanized ribosomes. E. coli WT GFP vs humanized-ribosome RFP mutants, fluorescence, 24 h; active compounds read low; DMSO median 0, no signal -100. GFP signal change (wild-type ribosome), % (no concentration beside the values). 350,000 compounds, 1.6% hits;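 active means significant combined selectivity score with lowered wild-type GFP, culture density cut under 30%, mutant RFP and density less affected; inactive means any of these conditions unmet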; further: one replicate is shown; some compounds called inactive have numbers as strong as hits
RanGTP-Imp inh = inhibitors of RanGTP-importin-beta interaction, primary screen, biochemical, FRET, CFP-Ran, YFP-importin-beta, homogeneous; cell-free CFP-Ran/YFP-importin-beta FRET ratio; inhibition, % (no concentration beside the values); 300,000 compounds, 1.1% hits;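 active means most replicates above 15%; inconclusive means exactly half above 15%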;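 further: 0% = DMSO wells and 100% = Ran loaded with GDP instead of GTP; wells of about 40 µL received 100 nL stock; the first replicate is given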
T cruzi inh = T. cruzi replication inhibition; T. cruzi beta-gal in NIH3T3, luminescence, 90 h; inhibition, % (test concentration not listed); 300,000 compounds, 1.4% hits; AID 1885;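 active means mean inhibition across valid replicates above about 55%, limit read from the data; inconclusive means mean below that limit but half or more replicates reach it; inactive means mean below it, under half of replicates reach it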;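 further: signal also drops with host cell toxicity which is not excluded here; 0% = plate median of DMSO wells and 100% = zero luminescence signal; higher percent means less beta-gal luminescence so fewer parasites; stock transfer was 50 nL into about 50 µL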
AF4-AF9 inh = inhibitors of human MLL-AF4/AF9 interaction; P42568; AlphaScreen, biotin-AF4 peptide binding to FLAG-AF9; inhibition, % at 10 µM; 350,000 compounds, 0.47% hits;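 active means every replicate reaching a set inhibition limit, whatever the replicate mean, cut at about 25% in these data; inconclusive means mean inhibition reaches that limit but some replicates miss it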;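 further: 0% = plate neutral control median and 100% = total signal loss; the record names both 10 and 1 µM as test concentration; the first replicate is given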
Target sequence (P42568 whole entry, looked up): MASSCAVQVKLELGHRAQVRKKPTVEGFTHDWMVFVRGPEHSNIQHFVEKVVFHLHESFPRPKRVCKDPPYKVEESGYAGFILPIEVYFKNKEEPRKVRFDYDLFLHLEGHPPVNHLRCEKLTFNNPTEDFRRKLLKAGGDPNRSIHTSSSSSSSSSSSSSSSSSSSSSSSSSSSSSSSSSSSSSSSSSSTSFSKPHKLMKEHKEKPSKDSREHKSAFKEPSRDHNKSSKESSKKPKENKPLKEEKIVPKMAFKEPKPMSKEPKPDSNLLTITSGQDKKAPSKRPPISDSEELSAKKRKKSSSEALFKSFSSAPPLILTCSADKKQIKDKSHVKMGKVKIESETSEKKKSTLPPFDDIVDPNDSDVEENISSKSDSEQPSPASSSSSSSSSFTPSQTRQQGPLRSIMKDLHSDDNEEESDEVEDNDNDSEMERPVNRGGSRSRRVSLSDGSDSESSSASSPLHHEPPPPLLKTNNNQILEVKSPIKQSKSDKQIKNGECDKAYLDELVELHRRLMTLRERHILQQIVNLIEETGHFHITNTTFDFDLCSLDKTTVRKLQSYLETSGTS
Calb FLC = C. albicans growth modulation with fluconazole; C. albicans CaCi-2 (fluconazole-resistant clinical isolate) + fluconazole, Alamar Blue growth, 48 h; 300,000 compounds, 0.57% hits; growth inhibition, % (test concentration not listed);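 active means most replicates above 75%; inconclusive means exactly half above 75%; inactive means most below 75%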;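 further: all wells also contain fluconazole at 8 µg/ml as a sub-toxic cotreatment; 0% = median of DMSO wells and 100% = median of geldanamycin control wells; wells of about 8 µL received 7.5 nL stock; the first replicate is given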
A1 inh = inhibitors of the anti-apoptotic protein A1, read as caspase activation; MEF A1-2A-BIM cells, Caspase-Glo 3/7 luminescence, 3 h; percent of clofoctol response, vehicle zero; caspase activation, % (concentration not given with the values); 330,000 compounds, 0.066% hits; AID 2462;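 active means over half of replicate activation scores above 10%, or exactly half above 10 with the replicate mean above 10; inconclusive means replicate mean below 10 yet half the replicates above 10; inactive means over half of replicates below 10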;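 further: wells of about 30 µL received 50 nL stock; many hits fall short of the cut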
Vif TR-FRET = HIV-1 Vif–A3G interaction blockers – biochemical, TR-FRET, GST-Vif 1-94, biotin-A3G peptide, dose response retest, primary screen (AID 1117319); TR-FRET GST-Vif / biotin-A3G peptide binding; higher % means a stronger effect; test concentration not given here; strong numbers were not always called active; inhibition, %; hits with a dose series show IC50 in µM; 260,000 compounds, 0.57% hits;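 active means above the screen mean plus three standard deviations and confirmed in dose response; inconclusive means results disagree or hit not tested in dose response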;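 further: Vif residues 1-94 fused to GST binding biotinylated APOBEC3G peptide 110-148; 0% = full assay without inhibitor and 100% = GST in place of GST-Vif; retest series ran down from 100 µM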
Beta apoptosis = blocks beta cell apoptosis; INS-1E cytokine-induced death, ATP luminescence, 48 h; percent of positive-control rescue, neutral wells zero; protection from apoptosis, % (test concentration not listed); 300,000 compounds, 0.8% hits; AID 435005;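 active means all replicates at 75% or more, or half of them and the mean; inconclusive means half reach 75% but not the mean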;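 further: 0% = cytokine-treated negative control wells and 100% = positive control rescue; higher means more ATP so stronger rescue from cytokine killing; wells of about 40 µL received 100 nL stock; the first replicate is given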
rRNA inh HTS OD600 = also measured in rRNA inh HTS; calls as there; OD600 change, %; measured here: OD600 growth;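 optical density of the mix in the first replicate; 0 = DMSO median and -100 = no signal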
rRNA inh HTS RFP = recorded beside rRNA inh HTS, whose call it bears; RFP signal change, %; measured here: RFP humanized mutant strains;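 first replicate; 0 = DMSO median and -100 = no signal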
Starred values were filed as active, the others as inactive; ? = inconclusive; . = no result given; & = joins results of further samples. The list is partial; the hit share may differ from the screen's.

SMILES	rRNA inh HTS	rRNA inh HTS OD600	rRNA inh HTS RFP	RanGTP-Imp inh	T cruzi inh	AF4-AF9 inh	Calb FLC	A1 inh	Vif TR-FRET	Beta apoptosis
N/C(Cc1ccc(Cl)cc1)=N\OC(=O)c1ccccc1	-3	-1	5.7	6.1	-2	.	14	0.9	-1%	-5
O=C(COc1ccc(/C=N/NC(=O)c2ccccc2Br)cc1)Nc1ccccc1	-1	2	-1.0	-1.6	-12	-1.3	3	1.0	-6%	-2
Cc1cc(C)cc(C(=O)NCCCc2ccccc2)c1	-31	-31	-5.9	-1.1	1	-1.4	-31	0.3	-3%	-2
COc1ccc2c(c1)O/C(=C\c1ccco1)C2=O	-3	5	1.0	21*	0	.	1	-4.0	?	-4
COc1cc(C(=O)N/N=C(\C)c2ccccn2)cc(OC)c1OC	6	27	-0.1	1.8	16	3.2	-2	-0.6	.	83*
Cc1ccc(C(=O)NCc2ccncc2)cc1S(=O)(=O)N1CCOCC1	16	11	0.7	-2.5	-1	0.1	4	0.9	-1%	-5
Cc1cccc2sc(NC(=O)C3CCN(S(=O)(=O)c4cc([N+](=O)[O-])ccc4Cl)CC3)nc12	2	3	8.1	-2.0	68*	-1.0	18	-1.1	.	9
CCCN(Cc1cc2ccc(C)cc2[nH]c1=O)C(=O)c1ccccn1	.	.	.	0.6	-12	.	-14	0.5	?	.
COc1ccccc1NC(=O)CN(C)S(=O)(=O)c1cccc2cccnc12	13	15	-2.1	1.5	-15	-1.1	23	1.0	.	-7
O=C(Nc1ccccc1OC(F)(F)F)c1ccc([N+](=O)[O-])cc1	6	8	-3.2	-2.5	-1	2.3	-30	1.9	.	.
CC12CCC(C(=O)N(CC3CO3)C1=O)C2(C)C (stereo unspecified)	14	5	-2.8	1.2	-6	-0.2	-3	1.3	-6%	-11
CC(=O)Oc1ccc2oc(C)c(C(=O)N3CCOCC3)c2c1	.	.	.	6.2	-13	.	2	0.0	22%	-6
Cn1cnc(S(=O)(=O)NCc2ccc(Br)cc2)c1	7	14	-3.2	0.1	7	-1.6	-6	-0.2	-6%	.
COc1ccc2cc(C(=O)C3CCCN(C(=O)c4sc(C)nc4C)C3)ccc2c1 (stereo unspecified)	-7	-16	5.5	0.4	-16	2.3	5	1.2	.	3
Cc1ccc(NC(=O)NCc2ccccn2)c(C)c1	15	7	-1.0	.	.	0.3	95*	0.1	.	2
CCC(C(=O)OCC(=O)c1c(N)n(CC(C)C)c(=O)n(C)c1=O)c1ccccc1 (stereo unspecified)	0	7	-1.8	-0.8	11	-0.3	5	0.2	-3%	19
Nc1nonc1-c1noc(-c2ccccc2Br)n1	.	.	.	0.3	8	.	-2	-1.6	-1%	0
COc1ccc(Cl)cc1S(=O)(=O)N1CCC(C(=O)NCc2ccco2)CC1	4	4	-0.1	-0.9	3	2.3	-15	0.4	.	-1
CCOc1ccc(NC(=O)CN(C)C(=O)C2CC(=O)N(Cc3ccco3)C2)cc1OCC (stereo unspecified)	13	9	2.5	.	.	-1.2	.	-0.5	-5%	-3
Cc1nc(C)c(C(=O)C2=C(O)C(=O)N(CCCn3ccnc3)C2c2ccccc2)s1 (stereo unspecified)	.	.	.	-0.7	4	.	-6	.	14%	.
CCC(C)N1CCN(S(=O)(=O)c2ccc(NC(C)=O)cc2)CC1 (stereo unspecified)	15	23	-7.3	7.0	-12	-5.7	-5	0.4	-5%	6
Cc1c(C(=O)O)sc(S(=O)(=O)N2CCN(C(=O)Cc3ccc(F)cc3)CC2)c1C(=O)O	13	17	-0.9	.	.	-1.5	.	0.0	-2%	-2
CN1CCN(C(=O)CCC(=O)O)CC1	10	3	-2.4	0.9	-6	-7.3	-1	0.9	31%	-4
O=C1NC(=S)CN1c1ccccc1	-1	6	-0.9	1.7	-4	-7.4	-1	1.1	-3%	-3
O=C(COC(=O)COc1ccccc1[N+](=O)[O-])Nc1cccc(Br)c1	.	.	.	?	-6	.	-21	0.0	?	-1
O=c1[nH]cc(S(=O)(=O)N2CCN(c3cccc(Cl)c3)CC2)c(=O)[nH]1	9	17	-1.8	3.7	-21	-0.5	27	0.2	-7%	-4
CC(C)C(c1nnnn1C(C)(C)C)N1CCC(Cc2ccccc2)CC1 (stereo unspecified)	-7	-17	-11	3.1	44	0.4	-4	0.1	-12%	7
CN(C(=O)c1ccco1)c1ccccc1C(=O)O	0	2	-2.5	1.7	-16	-8.5	-7	0.3	.	-2
COc1ccc(-c2csc(NC(CO)c3nc4ccccc4n3Cc3ccc(C)cc3)n2)cc1 (stereo unspecified)	-4	-13	2.5	-2.4	23	.	9	0.2	.	-3
Cc1ccc(S(C)(=O)=O)cc1C(=O)NC(C)C1CC2CCC1C2 (stereo unspecified)	12	17	0.2	-3.5	-5	-0.1	2	1.7	.	-1
COc1nc(NCCN2CCOCC2)nc(Nc2ccccc2)n1	.	.	.	1.8	-9	.	-3	0.2	?	-4
Cc1cc(C)c2sc(C)[n+](CCCS(=O)(=O)[O-])c2c1	15	-5	1.8	-0.8	-19	-5.5	-8	-0.8	8%	2
Cc1cc(=O)n2[nH]c(N)c(N=Nc3ccccc3)c2n1	.	.	.	0.1	-16	.	-12	-6.4	12%	-7
O=C(CNC(=O)c1ccccc1F)OCc1csc(-c2ccccc2)n1	-3	4	1.9	0.7	-18	-1.1	-3	0.0	-7%	2
Cc1c(C(=O)NCCNc2ncc(C(F)(F)F)cc2Cl)cccc1[N+](=O)[O-]	-1	-7	6.3	-1.5	8	-0.4	-4	0.8	10%	1
Cc1ccc(CN2CC(C(=O)Nc3cccc(S(=O)(=O)N4CCCCC4)c3)CC2=O)cc1 (stereo unspecified)	.	.	.	2.8	3	.	2	?	14%	-4
COC(=O)C(=O)/C=C(\O)c1ccc(C)cc1	.	.	.	-2.8	-16	.	1	0.5	13%	-4
Cc1ccc(S(=O)(=O)CC(=O)Nc2cccc(C)n2)cc1	5	8	-1.1	5.4	-13	-1.7	-16	-0.1	.	-7
O=C(NCC(c1ccc(F)cc1)N1CCOCC1)c1cccnc1Sc1ccccc1Cl (stereo unspecified)	0	-1	-1.0	4.3	-6	9.1	5	0.6	-2%	1
COc1ccccc1OCCNC(=O)/C=C/c1ccc([N+](=O)[O-])cc1	.	.	.	1.8	17	.	0	1.3	9%	-2
CCOC(=O)C1=C(N)N2C(=O)C(C)SC2=C(C(=O)OCC)C1c1cc(OC)c(OC)c(OC)c1 (stereo unspecified)	5	-3	-0.4	3.9	-5	-9.9	-11	0.7	?	-4
CN(C)S(=O)(=O)n1cc(/C=C(\NC(=O)c2ccccc2Cl)C(=O)N2CCCC2)c2ccccc21	18	9	-2.1	3.3	-10	-0.7	?	0.1	.	-1
O=C(CN1C(=O)c2cccc([N+](=O)[O-])c2C1=O)NNC(=O)c1ccc(F)cc1	6	14	1.2	.	.	1.0	.	-0.4	.	-1
CCN(CC(O)Cn1c2ccccc2c2ccccc21)S(=O)(=O)c1ccc(C)cc1 (stereo unspecified)	.	.	.	-3.3	54	.	0	0.1	-7%	-1
Cc1ccc2oc(C(=O)Nc3nnc(CC(C)C)s3)c(C)c2c1	14	17	2.9	3.2	2	-1.7	11	1.7	-5%	0
Cc1nn(C(=O)c2cccc([N+](=O)[O-])c2)c(C)c1Cl	16	23	2.8	-0.5	-5	-1.3	-2	-0.3	.	-2
O=C(Nc1ccccc1-c1nnn(CC(=O)N2CCN(c3ccccc3)CC2)n1)c1cccs1	9	-1	1.1	-3.1	25	6.2	-7	0.5	-10%&-2%	5
COc1ccc(/C=N\NC(=O)c2cc(O)c(O)c(O)c2)cc1CN1CCN(c2ccc(F)cc2)CC1	.	.	.	-1.5	2	.	99*	0.8	<2.5µM*	-6
Cc1cc(C(=O)NC(Cc2c[nH]c3ccccc23)C(=O)O)c(C)o1 (stereo unspecified)	9	10	2.3	0.1	-3	-0.1	3	0.5	2%	-1
CN(c1nc2nonc2nc1NC1CC1)C1CCOC1 (stereo unspecified)	12	13	2.9	2.8	-12	-1.6	-1	-0.7	-8%	-3
Continuation:
SMILES	rRNA inh HTS	rRNA inh HTS OD600	rRNA inh HTS RFP	RanGTP-Imp inh	T cruzi inh	AF4-AF9 inh	Calb FLC	A1 inh	Vif TR-FRET	Beta apoptosis
COC(=O)c1ccc(NC(=O)CSc2nc(C)cc(=O)[nH]2)cc1	.	.	.	3.7	2	.	4	0.3	-3%	-2
O=C(O)CN1C(=O)C2C3C=CC(C3)C2C1=O (stereo unspecified)	7	8	-1.9	-2.9	-1	6.0	5	0.5	19%	-5
O=C(CNCC1CCCO1)N1CCCc2ccccc21 (stereo unspecified)	14	1	-0.6	-1.1	-13	-0.9	9	0.3	-1%	-6
CCCN1C(=O)C(O)(C2CC(=O)CC(C)(C)O2)c2ccccc21 (stereo unspecified)	.	.	.	-1.0	0	.	6	0.7	10%	-2
O=C(CSc1n[nH]c(-c2cccs2)n1)NCc1ccc2c(c1)OCO2	.	.	.	?	-13	.	18	0.4	3%	0
CN1CCc2c(sc3nc(SCC(N)=O)n(-c4ccc(Cl)cc4)c(=O)c23)C1	4	8	1.8	12	9	-2.3	101*	-1.0	19%	.
COc1ccc(CC(=O)Oc2ccc(C)cc2Br)cc1OC	-2	-4	-3.1	-3.6	-3	0.0	3	2.1	12%	.
COC(=O)C(=O)Nc1nnc(COc2ccccc2)s1	.	.	.	13	-14	.	-6	-0.5	1%	0
COc1ccc(CNC(=O)C2CC(c3cccc(OC)c3)=NO2)cc1 (stereo unspecified)	.	.	.	?	10	.	3	-1.4	19%	-4
O=C(c1ccccc1Cl)N(Cc1ccc(Br)cc1)N1C(=O)CCCC1=O	-19	-14	-0.1	?	5	0.5	-1	-0.3	-1%	-2
COCC(C)NCc1cccc(C)c1 (stereo unspecified)	.	.	.	-2.3	-2	.	-3	0.5	-2%	.
CCOc1ccc(C(=O)C2CCN(C(=O)c3ccc([N+](=O)[O-])cc3)CC2)cc1	-6	-4	1.3	2.5	18	5.1	16	-0.1	0%	.
COC1CCCN(C(=O)c2ccc3nc(Cc4cccc(Cl)c4)oc3c2)C1 (stereo unspecified)	-3	-18	0.9	-2.1	0	-0.8	4	-1.3	.	-1
O=C(CN1CCSCC1)N/N=C/c1ccccc1F	.	.	.	-0.6	-7	.	-7	.	-2%	.
CC[C@@H]1[C@H]2CCCC(=O)N3CC[C@@H](C[C@@H]1OC(=O)NCc1ccccc1)[C@@H]23	-8	1	3.8	1.1	4	-0.4	14	0.1	.	1
O=C(CSc1nnc(-c2ccccc2F)o1)OCc1ccccc1	-8	-3	0.6	-3.0	-7	-49	0	-0.6	21%	5
